TRPML1 ag – activates the human TRPML1 channel; activation, % (concentration not given with the values); TRPML1-expressing cells, Ca2+ dye fluorescence, FDSS; host cell line not named in the record; reference of the full effect not given here; hit rate 0.12% among 410,000; in the data active = activation above about 50%; inconclusive = about 30% to 50%; inactive = below about 30%; also: 0% is about no effect; the text of the record puts the active cut at 80%
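Calcium fluorescence on an FDSS kinetic reader gave the read-out. Tet-induced TRPML1-DL cells were plated overnight, dye-loaded (Ca8 with quencher, 45-90 min, room temperature, dark), then read 110 s after compound addition, and again 110 s after 4uM final 54-4 (EC80).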
TRPML1 inh – human mucolipin-1 channel inhibition; hit rate 0.02% among 390,000; activity change, negative = inhibition, % (no concentration beside the values); Q9GZU1; TRPML1-inducible cells, Ca2+ dye fluorescence, FDSS; stronger effect = lower value; inhibition of EC80 agonist-evoked calcium signal; AID 624415; in the data active means activity change below about -50%; inconclusive means about -30% to -50%; inactive means above about -30%;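 also: stimulus is agonist 54-4 at its EC80 concentration; % is scaled to controls: 0 for no effect and ±100 for the full control effect; compound concentration not given in the record; the text of the record puts the active cut at -80%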
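Tet-induced TRPML1-DL cells loaded with Ca8 no-wash calcium dye were read kinetically on FDSS. Compound addition was followed by EC80 agonist 54-4 (4 uM final); inhibition was read over 110 s.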
Sfp inh – blocks B. subtilis Sfp PPTase activity | Q9F4F7 | Potency, µM, inactives show max response, negative = inhibition, most hits filed as inhibitors | Biochemical Sfp PPTase activity, qHTS | hit rate 3.5% among 310,000 | AID 1490; active = well fitted inhibition curve with a large enough effect; inconclusive = small, poorly fitted or top-dose-only effect, or another doubt; inactive = no such curve, though single readings can be large or run the other way;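 also: the enzyme is Sfp with the accession as filed and its product quenches rhodamine fluorescence; potency is read from the fitted curve at half-maximal effect; 0% = enzyme reaction without inhibitor and -100% = no enzyme wells; top concentration of the series not given in the record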
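After 15 min at room temperature with compound, 15 nM Sfp received 5 uM rhodamine-CoA plus 12.5 uM BHQ-2-ybbR (50 mM Hepes pH 7.6, 10 mM MgCl2). Rate came from the fluorescence difference over 30 min, ex 525/em 598 nm.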
TRPV1 PAM – potentiators of human vanilloid receptor 1 (TRPV1); Q8NER1; TRPV1-expressing cells, Fluo-8 calcium influx, capsaicin EC20 potentiation; host cell line not named in the record; control for the full effect not named in the record; potentiation, % at 8.33 µM; hit rate 0.02% among 320,000; AID 540277; active means potentiation above 80%; inconclusive means 30% to 80%; inactive means below 30%; also: 0% is about no effect
Target sequence (Q8NER1 whole entry, looked up): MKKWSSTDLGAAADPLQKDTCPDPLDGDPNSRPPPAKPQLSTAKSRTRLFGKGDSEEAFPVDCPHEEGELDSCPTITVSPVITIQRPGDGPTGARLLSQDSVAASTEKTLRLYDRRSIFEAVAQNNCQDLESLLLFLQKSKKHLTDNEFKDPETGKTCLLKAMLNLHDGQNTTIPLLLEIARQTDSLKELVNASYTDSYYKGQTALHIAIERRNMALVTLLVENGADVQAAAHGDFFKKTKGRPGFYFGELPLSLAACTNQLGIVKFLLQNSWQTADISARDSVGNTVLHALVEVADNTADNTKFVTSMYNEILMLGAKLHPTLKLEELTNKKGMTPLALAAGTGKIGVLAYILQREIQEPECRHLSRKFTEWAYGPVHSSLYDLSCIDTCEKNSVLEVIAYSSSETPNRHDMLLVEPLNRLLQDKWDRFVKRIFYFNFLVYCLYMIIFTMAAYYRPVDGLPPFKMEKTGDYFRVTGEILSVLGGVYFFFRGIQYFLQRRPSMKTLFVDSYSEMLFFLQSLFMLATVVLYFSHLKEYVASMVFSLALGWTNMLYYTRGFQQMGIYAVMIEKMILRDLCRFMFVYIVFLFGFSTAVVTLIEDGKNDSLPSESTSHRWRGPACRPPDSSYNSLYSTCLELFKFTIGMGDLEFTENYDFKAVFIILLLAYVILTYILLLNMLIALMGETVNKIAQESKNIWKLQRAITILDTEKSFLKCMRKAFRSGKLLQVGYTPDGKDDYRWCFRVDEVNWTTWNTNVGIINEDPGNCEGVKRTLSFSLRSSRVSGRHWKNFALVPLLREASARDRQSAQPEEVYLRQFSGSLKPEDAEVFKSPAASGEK
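Fluo-8 calcium influx in TRPV1-expressing cells, kinetic read (ex 480/em 520 nm). Compound added and read 3 min for agonist activity, followed by capsaicin at EC20 final and 2 min further read for enhancement.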
Menin-MLL FL inh – menin-MLL binding inhibition, fluorescein peptide; Fluorescence polarization, fluorescein-MLL peptide displacement from menin; FP activity change, % at 61.4 µM; 290,000 tested, under 10 active; inconclusive = falling polarisation curve, or a change in total fluorescence; inactive = total fluorescence flat and polarisation flat or rising; no compound was filed as active; the % refers to the polarisation; negative = inhibition;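 also: % of control where 0% means no effect; inhibitors lower the polarisation; unlabelled MLL peptide was the positive control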
PINK1 modulator – PINK1 expression modulation. PINK1 immunofluorescence, high-content cytometry, 24 h. Potency, µM (top dose mostly 76.6 µM), inactives show top-dose activation (PINK1 increase), hits mostly activators. hit rate 0.2% among 410,000. AID 624263; active = well fitted activation curve with a large enough effect; inconclusive = small, poorly fitted or top-dose-only effect; inactive = flat fitted curve, though single readings scatter; cell line not stated here;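 also: potency is read from the fitted curve at half-maximal effect; % of control where 0% means no effect; nearly all actives have a fitted effect of over 65% in size; a mitochondrial uncoupler was the plate control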
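PINK1 protein level read as immunofluorescence by microplate cytometer in a fixed, stained stable cell line after 24 h exposure to five compound concentrations, with CCCP as control.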
ClpP mod – qHTS Assay for Activators of ClpP | hit rate 1.9% among 340,000 | ATP-dependent Clp protease proteolytic subunit (Bacillus subtilis (strain 168)), P80244 | Potency, µM (series often up to 57.5 µM), for inactives: at the highest dose activity change, negative = active | purified B. subtilis ClpP, FRET peptide cleavage, 20 min; active = well fitted falling curve with a large enough effect; inconclusive = small, poorly fitted or top-dose-only effect; inactive = no such curve, though single readings can be large or run the other way; also: potency is read from the fitted curve at half-maximal effect; the source files actives as falling curves though it sought activators and does not explain the sign; nearly all actives have a fitted effect of over 65% in size; many hits overshoot -100%
Target sequence (P80244 whole entry, looked up): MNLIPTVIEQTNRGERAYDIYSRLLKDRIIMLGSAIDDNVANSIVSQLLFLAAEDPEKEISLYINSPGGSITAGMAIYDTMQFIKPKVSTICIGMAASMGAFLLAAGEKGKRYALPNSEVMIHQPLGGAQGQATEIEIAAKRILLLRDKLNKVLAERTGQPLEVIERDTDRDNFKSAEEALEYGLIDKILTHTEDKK
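FRET quenching reversal measured ClpP activation: 10 microg/mL B. subtilis ClpP at pH 8 with the FRET-FV decapeptide, read at 430 nm after 320 nm excitation. The 20-min minus 0-min signal was scaled between DMSO/no-enzyme wells and ADEP (5.8 microM final).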
The depositor's hits bear a star; [ ] = remark or other dose.

COC(C(=O)NC1CC1)c1ccccc1 (stereo not given) was read as TRPML1 ag 0.2, TRPML1 inh -1, Sfp inh 12%, TRPV1 PAM -4, Menin-MLL FL inh -2.1, PINK1 modulator 1.5% and ClpP mod 1.0%.
`CC(=O)CCC(=O)CNC(=O)CC[C@H]1O[C@@H](n2ccc(=O)[nH]c2=O)[C@H](O)[C@@H]1O` gave TRPML1 ag 1.2, TRPML1 inh -16, PINK1 modulator 6.7% and ClpP mod -6.2%.
Cc1[nH]c(=O)[nH]c(=O)c1/C=N/NC(=O)[C@@H](N)CC(C)C was read as TRPML1 ag 0.7, TRPML1 inh inconclusive, Sfp inh -26%, TRPV1 PAM 4, Menin-MLL FL inh 0.9, PINK1 modulator 0.6% and ClpP mod 0.0%.
Screening CCOc1ccc(OCC)c(NC(=O)C2CCN(S(=O)(=O)c3c(C)[nH]c(=O)[nH]c3=O)CC2)c1 returned TRPML1 ag -0.4, TRPML1 inh 12, Sfp inh 7%, TRPV1 PAM -20, Menin-MLL FL inh -0.2 and PINK1 modulator 0.1%.
For Cc1ccccc1N1CCN(S(=O)(=O)c2ccc3ccccc3c2)CC1 the results were TRPML1 ag -0.2, TRPML1 inh 14, Sfp inh 3%, TRPV1 PAM 12, PINK1 modulator 0.4% and ClpP mod inconclusive.
Screening Cc1cc(NC(=O)COC(=O)c2ccccc2[N+](=O)[O-])no1 returned TRPML1 ag 3.3, TRPML1 inh 5, Sfp inh 15%, TRPV1 PAM 13, Menin-MLL FL inh -3.7, PINK1 modulator 0.3% and ClpP mod 1.1%.
For COC(=O)NNC(=O)C1CCC(C(=O)NNC(=O)OC)CC1 (stereo not given) the results were TRPML1 ag 0.7, TRPML1 inh 2, Sfp inh 27%, TRPV1 PAM 6, Menin-MLL FL inh 3.9, PINK1 modulator -0.2% and ClpP mod -2.5%.
`CCCCOc1ccc(C(=O)CCN2CCOCC2)cc1` gave TRPML1 ag 6.8, TRPML1 inh 11, Sfp inh inconclusive, TRPV1 PAM -15, Menin-MLL FL inh -0.5 and PINK1 modulator 1.2%.
COc1ccc(CC(=O)OCC(=O)c2c[nH]c3ccccc23)cc1 was read as TRPML1 ag 0.8, TRPML1 inh -8, TRPV1 PAM 7, PINK1 modulator -1.4% and ClpP mod 0.1%.
`CC(C)COc1nc2ccccc2nc1N1CCN(C)CC1` gave TRPML1 ag -0.3, TRPML1 inh 22, Sfp inh -5%, TRPV1 PAM -17, Menin-MLL FL inh 1.8, PINK1 modulator 11% and ClpP mod -9.1%.
Screening Cc1ccccc1-c1nc(CN2CCC(C(=O)NCc3ccc(F)cc3)CC2)c(C)o1 returned TRPML1 ag 0.4, TRPML1 inh -10, PINK1 modulator 0.2% and ClpP mod -6.6%.
O=C(O)c1ccccc1NC(=O)N1c2ccccc2Sc2ccccc21 was read as TRPML1 ag 1.4, TRPML1 inh -8, PINK1 modulator 4.3% and ClpP mod 3.8%.
`CC1(C)NC(=O)N(CC(=O)N2CCN(S(=O)(=O)c3cc(Cl)ccc3Cl)CC2)C1=O` gave TRPML1 ag -0.3, TRPML1 inh -4, TRPV1 PAM -1, PINK1 modulator 2.7% and ClpP mod -6.4%.
Screening COc1ccc(-c2c(C)nc3c(-c4ccc(F)cc4)cnn3c2N)cc1 returned TRPML1 ag 0.8, TRPML1 inh -13, Sfp inh 4%, TRPV1 PAM inconclusive, Menin-MLL FL inh -15, PINK1 modulator -0.8% and ClpP mod 4.1%.
Screening O=C(Nc1cccc2ccccc12)c1ccc(Br)o1 returned TRPML1 ag -0.4, TRPML1 inh -5, Sfp inh -7%, TRPV1 PAM -3, Menin-MLL FL inh -0.5, PINK1 modulator 0.8% and ClpP mod -1.5%.

Random excerpt: two entries already listed.
`CC1(C)NC(=O)N(CC(=O)N2CCN(S(=O)(=O)c3cc(Cl)ccc3Cl)CC2)C1=O` gave TRPML1 ag -0.3, TRPML1 inh -4, TRPV1 PAM -1, PINK1 modulator 2.7% and ClpP mod -6.4%.
Screening Cc1ccccc1-c1nc(CN2CCC(C(=O)NCc3ccc(F)cc3)CC2)c(C)o1 returned TRPML1 ag 0.4, TRPML1 inh -10, PINK1 modulator 0.2% and ClpP mod -6.6%.

More compounds:
For CC(C)C1CCN(C(=O)C2CCC(=O)N(CCc3ccc(Cl)cc3)C2)CC1 (stereo not given) the results were TRPML1 ag 0.0, TRPML1 inh 11, Sfp inh 4%, TRPV1 PAM -11, PINK1 modulator 2.8% and ClpP mod -0.4%.
For CCOC(=O)c1c(S(=O)(=O)N2CCC(C(=O)N3CCN(c4ccccc4F)CC3)CC2)c(C)n(C)c1C the results were TRPML1 ag -1.1, TRPML1 inh -15, PINK1 modulator 0.1% and ClpP mod -2.9%.
O=C(O)c1cc(S(=O)(=O)Nc2ccc3cn[nH]c3c2)ccc1Br was read as TRPML1 ag 1.4, TRPML1 inh 33, TRPV1 PAM 5, PINK1 modulator -0.2% and ClpP mod -6.5%.
`CCN(CC)c1ccc2cc(-c3nc4ccccc4n3C)c(=O)oc2c1` gave TRPML1 ag 61*, TRPML1 inh 14, Sfp inh 7%, Menin-MLL FL inh inconclusive, PINK1 modulator inconclusive and ClpP mod -0.4%.
`CCOc1ccc2c(c1)c(=O)c(S(=O)(=O)c1ccc(F)cc1)cn2CC(=O)Nc1ccccc1C` gave TRPML1 ag 0.3, TRPML1 inh 12, PINK1 modulator 5.3% and ClpP mod inconclusive.
`CC(=O)N1CCc2cc(S(=O)(=O)NC(C(=O)Nc3nc(C)cs3)C(C)C)ccc21` (stereo not given) gave TRPML1 ag 0.4, TRPML1 inh 11, Sfp inh 18%, TRPV1 PAM 4, Menin-MLL FL inh 3.0, PINK1 modulator 0.0% and ClpP mod -0.2%.
Screening CC1CCc2c(sc(NC(=O)/C=C/c3cccs3)c2C(=O)O)C1 (stereo not given) returned TRPML1 ag 0.3, TRPML1 inh -5, Sfp inh 16%, TRPV1 PAM 4, Menin-MLL FL inh 4.3, PINK1 modulator -0.3% and ClpP mod 1.7%.
For O=C(CN1C(=O)c2ccc([N+](=O)[O-])cc2C1=O)NC1CCS(=O)(=O)C1 (stereo not given) the results were TRPML1 ag 0.3, TRPML1 inh 16, TRPV1 PAM 8, PINK1 modulator -0.8% and ClpP mod -7.3%.
Screening CCOCCCNC(=O)c1ccc(Cn2c(=O)c3cccn3c3cccnc32)cc1 returned TRPML1 ag -1.1, TRPML1 inh -1, PINK1 modulator 1.5% and ClpP mod 4.4%.
O=[N+]([O-])c1cc(CN(CCO)CCO)ccc1O was read as TRPML1 ag 0.5, TRPML1 inh -8, Sfp inh 0%, TRPV1 PAM 3, Menin-MLL FL inh 4.7 and PINK1 modulator 2.2%.
CCCNC(=O)C(Cc1cccc(C#N)c1)NC(=O)c1ccc(C#N)cc1 (stereo not given) was read as TRPML1 ag -0.8, TRPML1 inh -13, TRPV1 PAM -3, PINK1 modulator -0.1% and ClpP mod -1.6%.
CC1=C(C(=O)OCC2CCCO2)C(c2coc3ccc(C)cc3c2=O)C2=C(CCCC2=O)N1 (stereo not given) was read as TRPML1 ag -1.5, TRPML1 inh 1, Sfp inh 4%, TRPV1 PAM -5, Menin-MLL FL inh -5.8, PINK1 modulator 5.4% and ClpP mod 1.0%.
For CC(C)(C)c1ccc(S(=O)(=O)N2CCN(c3ccccn3)CC2)cc1 the results were TRPML1 ag -1.2, TRPML1 inh 4, Sfp inh 20%, TRPV1 PAM -3, Menin-MLL FL inh -0.7, PINK1 modulator 4.6% and ClpP mod -1.8%.
CCOc1ccc(-c2ncncc2-c2ccc(OC)c(OC)c2)c(O)c1 was read as TRPML1 ag 1.6, TRPML1 inh 6, Sfp inh -1%, TRPV1 PAM 4, Menin-MLL FL inh 9.0, PINK1 modulator 0.1% and ClpP mod 1.3%.
Screening COc1ccc(CNC(=O)CN(C(=O)c2ccc(CN3CCOCC3)o2)C2CCCC2)cc1 returned TRPML1 ag 0.2, TRPML1 inh 13, Sfp inh -2%, TRPV1 PAM -9, Menin-MLL FL inh 4.4, PINK1 modulator -3.7%[38.3 µM] and ClpP mod -0.9%.
Screening CC1(C(=O)NS(=O)(=O)c2ccccc2)CCN1C(=O)Cc1cc(F)ccc1F (stereo not given) returned TRPML1 ag -0.2, PINK1 modulator -0.5% and ClpP mod -1.7%.
`CCc1cc(C(=O)N(CCCOC)c2c(N)n(Cc3ccccc3)c(=O)[nH]c2=O)sc1C` gave TRPML1 ag 0.5, TRPML1 inh -1, TRPV1 PAM 9 and PINK1 modulator -4.0%.
Cc1ccc(Cn2c(=O)c3ccccc3n3c(CCC(=O)O)nnc23)cc1 was read as TRPML1 ag 0.1, TRPML1 inh -1, PINK1 modulator 0.9% and ClpP mod -9.1%.
`COc1ccc(NC(=O)CCN2C(=O)/C(=C/c3ccc4c(c3)OCO4)SC2=S)cc1` gave TRPML1 ag -0.2, TRPML1 inh 2, Sfp inh 10%, TRPV1 PAM 1, Menin-MLL FL inh -5.0 and PINK1 modulator -0.6%.
`CCOc1ccc(CCNC(=O)c2cc3c(s2)-c2c(C)cccc2OC3)cc1` gave TRPML1 ag -0.2, TRPML1 inh 4, PINK1 modulator 0.4% and ClpP mod 4.1%.
`O=C(O)CCCc1nc2ccccc2s1` gave TRPML1 ag -0.1, TRPML1 inh -3, Sfp inh 5%, TRPV1 PAM -2, Menin-MLL FL inh -0.6, PINK1 modulator -0.6% and ClpP mod 0.6%.
Cc1ccc(C(=O)N/C(=C\c2ccc(C(C)C)cc2)C(=O)NCCCN2CCOCC2)cc1 was read as TRPML1 ag 1.5, TRPML1 inh 3, Sfp inh -26%, TRPV1 PAM 15, Menin-MLL FL inh 0.7, PINK1 modulator 6.2% and ClpP mod -5.5%.
Screening CC(=O)Nc1ccc(S(=O)(=O)Nc2ccn(Cc3ccccc3Cl)n2)cc1 returned TRPML1 ag 1.2, TRPML1 inh 26, Sfp inh 3%, TRPV1 PAM -2, Menin-MLL FL inh -2.6, PINK1 modulator -0.8% and ClpP mod -2.2%.
`CCCCN(C(=O)Cn1nnc2ccccc21)C(C(=O)NCCOC)c1ccccc1` (stereo not given) gave TRPML1 ag 1.5, TRPML1 inh 13, Sfp inh -17%, TRPV1 PAM 9, Menin-MLL FL inh 1.2, PINK1 modulator -2.6% and ClpP mod -3.4%.
